KCNQ2 block: KCNQ2 channel blockers in CHO-K1 cells – cell-based, FluxOR thallium flux, B-score, primary screen (AID 2156). 20 min; stronger effect = lower value; only compounds with negative scores are shown here; some inactives read as strong as hits. B-score at 10 µM. hit rate 1.1% among 310,000;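 active means fluorescence ratio B-score at most minus 3 library SDs, with starting brightness B-score within 2 library SDs, cut at about -5.5 in these data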
Target sequence (O88943 whole entry, looked up): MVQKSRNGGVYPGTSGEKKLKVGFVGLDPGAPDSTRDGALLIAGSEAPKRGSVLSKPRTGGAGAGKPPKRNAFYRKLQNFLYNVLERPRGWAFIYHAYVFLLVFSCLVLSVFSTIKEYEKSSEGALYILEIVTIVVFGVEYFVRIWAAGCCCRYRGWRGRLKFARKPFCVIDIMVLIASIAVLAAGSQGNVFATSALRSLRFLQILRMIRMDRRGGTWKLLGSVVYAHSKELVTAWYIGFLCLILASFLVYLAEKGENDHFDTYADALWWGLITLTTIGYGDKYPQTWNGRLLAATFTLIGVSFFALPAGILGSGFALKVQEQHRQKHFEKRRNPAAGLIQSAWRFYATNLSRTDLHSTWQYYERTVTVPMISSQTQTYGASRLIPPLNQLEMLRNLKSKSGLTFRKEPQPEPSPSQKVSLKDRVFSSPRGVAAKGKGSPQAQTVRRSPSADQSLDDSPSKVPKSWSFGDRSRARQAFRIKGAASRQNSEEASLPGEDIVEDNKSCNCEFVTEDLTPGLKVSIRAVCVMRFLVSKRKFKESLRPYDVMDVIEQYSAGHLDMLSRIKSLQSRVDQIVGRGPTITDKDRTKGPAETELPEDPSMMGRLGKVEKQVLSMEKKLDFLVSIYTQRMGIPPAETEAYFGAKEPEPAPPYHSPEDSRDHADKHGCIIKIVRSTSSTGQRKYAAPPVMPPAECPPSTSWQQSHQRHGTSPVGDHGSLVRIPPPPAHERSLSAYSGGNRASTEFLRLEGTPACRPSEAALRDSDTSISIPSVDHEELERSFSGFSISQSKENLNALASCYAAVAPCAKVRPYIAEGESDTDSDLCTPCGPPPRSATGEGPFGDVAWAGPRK
KCNQ2 block baseline: second read-out of KCNQ2 block, no call of its own (marks repeat the call); B-score; measured here: initial fluorescence intensity artifact check;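 brightness before thallium and not channel activity; 0 = typical well and far values either way flag optical interference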
Numbers without * were called inactive; i = inactive. An excerpt (hit frequency here may not be typical).

SMILES	KCNQ2 block	KCNQ2 block baseline
Cc1ccc(NS(=O)(=O)c2cc(C(=O)Nc3cccc([N+](=O)[O-])c3)ccc2C)cc1	i	0.01
CCN(CC)S(=O)(=O)c1ccc(C(=O)NCCN2C(=O)S/C(=C\c3cccnc3)C2=O)cc1	i	-2
Cc1ccc(S(=O)(=O)n2[nH]c(=O)cc2NC(=O)c2cccs2)cc1	i	0.65
Cc1ccc(-c2noc(CN(C(=O)CCCN3C(=O)c4ccccc4C3=O)C(C)C)n2)cc1	i	0.53
O=C(O)c1ccc(N/N=C/c2c[nH]c3ccccc23)cc1	i	-1.3
N=C1C(c2ccccc2)=C(O)CN1NC(=O)c1ccccc1	i	-1.3
CCOc1ccc(N2C(=O)CC(N(CCc3ccc(OC)cc3)C(=O)c3cccc(F)c3)C2=O)cc1 (stereo not given)	i	-0.39
O=C(COc1ccccc1Cl)c1ccc[nH]1	i	0.79
C=CCNC(=S)N1CCN(c2ccccc2Cl)CC1	i	2.7
O=C(NCC1CCCO1)c1cccc(NC(=O)c2cccs2)c1 (stereo not given)	i	-0.66
CC(Cc1cccs1)NC(=S)Nc1ccc(Cl)c(Cl)c1 (stereo not given)	i	1.8
O=C1COc2ccc(C(=O)C[n+]3cccc(O)c3)cc2N1	i	-0.61
O=C(NCCCN1CCCC1)c1ccc(Cn2c(=S)[nH]c3ccc(Br)cc3c2=O)cc1	i	0.89
COc1cc2c(cc1NC(=O)COC(=O)[C@@H](NC(=O)c1ccccc1)C(C)C)oc1ccccc12	i	-1.3
O=C(CCc1ccccc1)NNC(=O)Nc1ccc(Br)cc1	i	-0.51
COc1ccc(Nc2ncnc3sccc23)c(OC)c1	i	1.9
CC(=O)c1ccc(NC(=S)N(Cc2ccccc2)C(C)C2CC2)cc1 (stereo not given)	i	1.1
CCC(CC)C(=O)c1c[nH]c(C(=O)NCc2ccccn2)c1	i	0.42
CC(C)C[C@H](NC(=O)OC(C)(C)C)C(=O)N[C@@H](CO)[C@H](O)[C@@H]1C[C@@H]1C(=O)N1CCCC1	i	-3.3
COc1ccc(C)cc1NC(=O)CSc1nc(=O)n(CCCN2CCOCC2)c2c1CCCC2	i	-0.69
Cc1ccc(NC(=O)NC(=O)N(C(C)C)S(=O)(=O)c2ccc(C)cc2)cc1	i	2.1
CCOc1ccc(OCCC(=O)OCC(=O)Nc2ccc(C)c(S(=O)(=O)N3CCCCC3)c2)cc1	i	0.3
COc1ccc(C2CC(c3ccccc3)=NN2C(=O)COC(=O)C2(C)CC2(Cl)Cl)cc1 (stereo not given)	i	0.12
O=c1[nH]c2ccccc2c(O)c1SCCO	i	-2.7
O=C(NC(=S)N1CCN(Cc2ccccc2)CC1)c1cccnc1	i	0.03
Cc1cc(NC(=O)CSc2nnc(Nc3ccccc3C)s2)no1	i	0.94
Cc1cnn(Cc2ccccc2)c1N	i	0.48
CCCSCCCNC(=O)Cn1cc2c(n1)CCCCC2	i	0.02
Cc1cccc(NCC(=O)NNC(=S)Nc2ccccc2)c1	i	-1.5
CCCCc1n[nH]c2c1/C(=N/O)CC(c1ccccc1)C2 (stereo not given)	i	0.43

Compound profiles, as listed above. Order of values: KCNQ2 block, KCNQ2 block baseline
COc1ccc(C2CC(c3ccccc3)=NN2C(=O)COC(=O)C2(C)CC2(Cl)Cl)cc1 (stereo not given) is listed as i, 0.12
O=c1[nH]c2ccccc2c(O)c1SCCO is listed as i, -2.7

Quoted at random: 2 compounds from above.
SMILES	KCNQ2 block	KCNQ2 block baseline
Cc1cnn(Cc2ccccc2)c1N	i	0.48
O=c1[nH]c2ccccc2c(O)c1SCCO	i	-2.7

The results go on.
SMILES	KCNQ2 block	KCNQ2 block baseline
CN(Cc1ccncn1)C(=O)CC1C(=O)NCCN1Cc1cccc(Oc2ccccc2)c1 (stereo not given)	i	-0.04
Cc1cc(Nc2c(C)n(C)n(-c3ccccc3)c2=O)n2c(nc3cc(F)c(F)cc32)c1C#N	i	4
O=C(O[C@@H]1Cc2c(O)cc(O)cc2O[C@@H]1c1cc(O)c(O)c(O)c1)c1cc(O)c(O)c(O)c1	i	0.14
O=C(NCCc1ccccc1)/C(=C\c1ccc([N+](=O)[O-])cc1)NC(=O)c1ccccc1	i	0.09
CC1(C)SC(=S)N(NC(=O)Nc2ccccc2)C1N(O)C(=O)Nc1ccccc1 (stereo not given)	i	-0.82
CC(=O)n1cc(C2C(=O)CCCC2=O)c2ccccc21	i	3.5
CC(C)NC(=O)COc1coc(CN2CCN(c3ccccc3)CC2)cc1=O	i	0.86
Cc1ccc(CNC(=O)CN2CCN(Cc3ccc(Cl)cc3)C2=O)cc1	i	0.76
O=C(CCl)Nc1cccn2ncnc12	i	-1.4
Cn1c(C(=O)NC2CCCCCC2)cc2c(=O)n(C)c3ccccc3c21	i	-0.37
CCOC(=O)c1sc(=S)sc1SCc1cccc(C(F)(F)F)c1	i	-0.54
CCOc1ccc(S(=O)(=O)NC2CCCC2)cc1C	i	0.37
COc1ccc(NC(=O)CCCC(=O)OCC(=O)c2cccc(OC)c2)cc1	i	-3.3
CSc1nc(SCC(=O)O)c2c3c(sc2n1)COC(C)(C)C3	i	-0.25
COc1cc(CCC(=O)Nc2nnc(-c3cccnc3)s2)cc(OC)c1OC	i	-0.21
CC1(C)CC(=O)C2=C(C1)c1c(ccc3ncccc13)NC2c1cccs1 (stereo not given)	i	-0.49
O=C(Cc1ccc(Cl)cc1)c1ccc(O)cc1	i	0.05
COc1ccccc1N(C)S(=O)(=O)c1ccc(Cl)c(C(=O)NC2=NCCS2)c1	i	-1.1
CC(C)c1cc(C(=O)N2CCCC(C(=O)c3ccc4ccccc4c3)C2)on1 (stereo not given)	i	2.4
Cn1c(-c2ccc(F)cc2)cnc1NCc1ccc(F)cc1	i	0.2
CC(C)Oc1cccc(C(=O)Nc2ncn[nH]2)c1	i	1.2
COc1ccc(OC)c(C2CC(=O)Nc3c2c(=O)[nH]c2ncnn32)c1 (stereo not given)	i	0.28
COc1ccc(/C=C(\NC(=O)c2cccs2)C(=O)Nc2cccc3ccccc23)cc1OC	i	-0.19
COc1ccc(C2C(C(C)=O)=C(O)C(=O)N2CCc2ccccc2)c(OC)c1 (stereo not given)	i	-1.4
CC(CCc1ccccc1)NC(=O)CN1CCc2ccccc2C1 (stereo not given)	-5.8*	1.4*
COCCN(C(=O)COC(=O)c1cc(C)oc1C)c1c(N)n(Cc2ccccc2)c(=O)[nH]c1=O	i	0.63
CC(Oc1cccc(Cl)c1)C(=O)N1CCCN(C)CC1 (stereo not given)	i	-0.94
O=C(N/N=C\c1ccccn1)C1c2ccccc2Oc2ccccc21	i	-1.4
O=C(CC(c1ccccc1)(c1ccccc1)c1ccccc1)N[C@@H](Cc1ccccc1)C(=O)O	i	0.11
Cc1cc(C)cc(N(C(C)C(=O)N2CCOCC2)S(C)(=O)=O)c1 (stereo not given)	i	1.3
CCc1nc2nc(C)c(NS(=O)(=O)c3cccs3)c(=O)n2[nH]1	i	1.1
O=C(Cn1ncc2ccccc21)N1CCN(c2cccc(C(F)(F)F)c2)CC1	i	2.9
CC(NC(=O)CSc1ccccc1C(=O)O)C1CC2CCC1C2 (stereo not given)	i	1.3
COc1cccc(/C=C2\SC(=S)N(CCC(=O)NCCc3ccc(O)cc3)C2=O)c1	i	-1
NS(=O)(=O)c1ccc(Nc2ccc([N+](=O)[O-])c3nonc23)cc1	i	0.38
COc1ccc(NC(=O)c2[nH]c(C)c(C(C)=O)c2C)cc1S(=O)(=O)N1CCOCC1	i	1.8
Cc1ccccc1NC(=O)CSc1nc2ccccc2o1	i	-0.7
Cc1c(C(=O)N(C)c2ccc(Cl)cc2)cnn1-c1ccccc1	i	-0.8
O=C(CSc1nnc(-c2ccc(F)cc2)c2ccccc12)Nc1ccccc1Cl	i	-0.37
O=C(Cc1ccc([N+](=O)[O-])cc1)NNC(=O)c1cccs1	i	0.09

Some of the entries so far, with two lines to a compound:
Every second line gives: KCNQ2 block	KCNQ2 block baseline
CC(NC(=O)CSc1ccccc1C(=O)O)C1CC2CCC1C2 (stereo not given)
    i	1.3
COc1cccc(/C=C2\SC(=S)N(CCC(=O)NCCc3ccc(O)cc3)C2=O)c1
    i	-1
NS(=O)(=O)c1ccc(Nc2ccc([N+](=O)[O-])c3nonc23)cc1
    i	0.38
COc1ccc(NC(=O)c2[nH]c(C)c(C(C)=O)c2C)cc1S(=O)(=O)N1CCOCC1
    i	1.8

Next section.
SMILES	KCNQ2 block	KCNQ2 block baseline
COCCCNCCCOc1ccc(Cl)cc1Br	i	0.12
CCOC(=O)C1(Cc2ccccc2C)CCCN(Cc2cn(C)nc2C)C1 (stereo not given)	i	0.19
COc1ccc(C)cc1NC(=O)CN1C(=O)c2ccccc2S1(=O)=O	i	1.2
O=C(NCc1cccc(F)c1)c1ccc2nc(N3CCOCC3)sc2c1	i	2.2
O=[N+]([O-])c1ccccc1S(=O)(=O)Nc1cccc2cccnc12	i	0.83
Cn1ncc(Cl)c1C(=O)N1CCN(c2ccc(Cl)c(Cl)c2)CC1	i	0.96
COc1cc2c(OC(C)=O)c3c(c(-c4ccc5c(c4)OCO5)c2cc1OC)C(=O)OC3	i	0.33
CN1CCN(NC(=O)Nc2cccc(F)c2)CC1	i	2.6
O=C(O)Cc1ccc(Nc2cnn(C34CC5CC(CC(CC(=O)O)(C5)C3)C4)c(=O)c2Cl)cc1	i	0.04
CN(C)C(=O)c1cc(F)ccc1Sc1cc(Cl)ccc1Cl	i	1.7

Grouped by structure: the compounds so far with a CF3 group (2)
SMILES	KCNQ2 block	KCNQ2 block baseline
CCOC(=O)c1sc(=S)sc1SCc1cccc(C(F)(F)F)c1	i	-0.54
O=C(Cn1ncc2ccccc21)N1CCN(c2cccc(C(F)(F)F)c2)CC1	i	2.9

(cont.)
SMILES	KCNQ2 block	KCNQ2 block baseline
CC(C)c1cc(C(=O)NCCc2ccccc2)no1	i	1.3
Cc1ccc(C(=O)NNC(=O)Cc2nc3nc(C)cc(C)n3n2)cc1	i	3
O=C1CC(N2CCN(S(=O)(=O)c3ccccc3)CC2)C(=O)N1c1ccccc1 (stereo not given)	i	-0.23
Cc1oc(-c2cc(F)ccc2F)nc1CN1CCC(C(=O)N2CCOCC2)CC1	i	1.5
CCN(CC(=O)NC1CC1)S(=O)(=O)c1ccccc1	i	-0.06
COc1cc2c(cc1OC)CN(C(=O)c1ccc(-c3ccccc3)cc1)CC2	i	0.33
O=C(Nc1ccc(Cl)cc1)N(Cc1cccnc1)Cc1ccco1	i	-0.89
O=C(Nc1cc(Cl)cc(Cl)c1)C(NCCCO)c1ccccc1 (stereo not given)	i	-4.3
CN(C)S(=O)(=O)c1cccc(NC(=O)Cc2ccsc2)c1	i	-0.59
Cc1nc(CS(=O)(=O)c2ccc(Cl)cc2)sc1C(=O)O	i	-1.1
CC(C)(C)N(CC(=O)NC1CCCCC1)C(=O)CS(=O)CC(=O)Nc1ccc(F)cc1 (stereo not given)	i	1.1
CC1(C)CNC(=O)c2sc(NC(=O)CN3CCOCC3)nc2C1	i	-2
COc1ccc(NS(=O)(=O)c2cc(NC(=O)/C=C/c3cc(OC)ccc3OC)ccc2N2CCCCC2)cc1	i	-0.76
CCCCC1=CC2=C(c3ccco3)C(=O)C(C)(OC(=O)c3ccc(OC)cc3)C(=O)C2=CN1Cc1ccco1 (stereo not given)	i	-0.47
CCCCc1ccc(NC(=O)CN2C(=O)C3CCCCC3C2=O)cc1 (stereo not given)	i	1.2
CC(C)CC1(C(=O)NCc2cc(F)cc(C(F)(F)F)c2)C=CCN1C(=O)c1ccccc1 (stereo not given)	i	0.26
O=C(N[C@@H](Cc1ccccc1)C(=O)OCc1ccccc1)c1nc[nH]c1C(=O)NC1CCNCC1	i	0.99
Cc1ccc(CSc2nnc(CS(=O)Cc3ccc(Cl)cc3Cl)n2C)cc1 (stereo not given)	i	-0.97
CCOC(=O)c1c(-c2ccc(C)cc2)csc1/N=C/N(C)C	i	0.13
CCOC(=O)CNC(=O)COc1coc(CN2CCN(c3ccccc3)CC2)cc1=O	i	0.38
CC1CCc2c(C(=O)NCc3cccnc3)csc2C1 (stereo not given)	i	-0.79
CCOC(=O)c1ccc(-n2c(N)c(C(=O)NCC3CCCO3)sc2=S)cc1 (stereo not given)	i	-0.25
CCOC(=O)CSc1nnc(CNC(=O)c2ccc([N+](=O)[O-])cc2)n1C	i	-0.53
Cc1cccc(C)c1OCC(=O)Nc1cccc(-c2nnc(-c3ccccc3)o2)c1	-9.5*	1.3*
CC(=O)c1ccc(-c2nnc(CCC(=O)N3CCCC(C(=O)CC(C)C)C3)o2)s1 (stereo not given)	i	-1.1
COc1cccc(C2=NO[C@@H]3C(=O)N(Cc4ccccc4)C(=O)[C@H]23)c1OC	i	-2
CCN1CCN(CCNC(=O)c2ccc(/C=C3/Sc4ccccc4N(Cc4ccccc4C)C3=O)cc2)CC1	-13*	-0.66*
O=C(c1oc2ccccc2c1CSCc1ccccc1)N1CCN(c2ncccn2)CC1	-6.2*	0.65*
O=C(Cn1c(SCC(=O)N2CCc3ccccc3C2)nc2ccccc21)NC1CCCC1	i	-3.3
CCOC(=O)/C=C/C(=O)Nc1ccc(S(=O)(=O)N2CCCCCC2)cc1	i	0.24
CN(C(=O)c1cccc(NC(=O)c2ccco2)c1)c1ccccc1	i	0.92
COCCN(C(=O)CNC(=O)c1ccco1)C(C(=O)NC1CCCC1)c1ccc(OC)c(OC)c1 (stereo not given)	i	0.01
Brc1ccc(/C=N/Nc2nncc(-c3ccccc3)n2)o1	i	1.6
Cc1cccc(C)c1NC(=O)C1(N(Cc2ccco2)C(=O)CC2NC(=O)NC2=O)CCCC1 (stereo not given)	i	-0.03
COCCSc1nnc(NC(=O)C2CC(=O)N(c3ccc(Cl)cc3)C2)s1 (stereo not given)	i	-1.9
CCNS(=O)(=O)c1ccc(CCC(=O)N2CCc3ccccc3C2)cc1	i	1.1

Compound activity as filed in PubChem.
